ClpP mod: qHTS Assay for Activators of ClpP. purified B. subtilis ClpP, FRET peptide cleavage, 20 min. Potency, µM (doses to about 57.5 µM), for inactives: at the top dose activity change, negative = active. hit rate 1.9% among 340,000. AID 651965, 2013; active = well fitted falling curve with a large enough effect; inconclusive = small, poorly fitted or top-dose-only effect; inactive = no such curve, though single readings can be large or run the other way; also: potency is read from the fitted curve at half-maximal effect; the source files actives as falling curves though it sought activators and does not explain the sign; nearly all actives have a fitted effect of over 65% in size; many hits overshoot -100%
Target sequence (P80244 whole entry, looked up): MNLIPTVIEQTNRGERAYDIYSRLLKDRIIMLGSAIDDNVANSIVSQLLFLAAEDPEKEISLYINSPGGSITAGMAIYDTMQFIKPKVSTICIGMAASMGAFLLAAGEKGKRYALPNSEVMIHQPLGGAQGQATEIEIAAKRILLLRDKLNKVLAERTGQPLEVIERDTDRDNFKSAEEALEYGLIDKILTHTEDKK
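FRET quenching reversal measured ClpP activation: 10 microg/mL B. subtilis ClpP at pH 8 with the FRET-FV decapeptide, read at 430 nm after 320 nm excitation. The 20-min minus 0-min signal was scaled between DMSO/no-enzyme wells and ADEP (5.8 microM final).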
Menin-MLL FL inh: inhibitors of human menin-MLL interaction, wild-type MLL peptide | Fluorescence polarization, fluorescein-MLL peptide displacement from menin | FP activity change, % at 61.4 µM | 290,000 tested, under 10 active | AID 1766; inconclusive = falling polarisation curve, or a change in total fluorescence; inactive = total fluorescence flat and polarisation flat or rising; no compound was filed as active; the % refers to the polarisation; negative = inhibition;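 also: % of control where 0% means no effect; inhibitors lower the polarisation; unlabelled MLL peptide was the positive control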
TRPV1 PAM: human TRPV1 potentiation. hit rate 0.02% among 320,000. AID 540277. potentiation, % at 8.33 µM. TRPV1-expressing cells, Fluo-8 calcium influx, capsaicin EC20 potentiation; host cell line not named in the record; control for the full effect not named in the record; active means potentiation above 80%; inconclusive means 30% to 80%; inactive means below 30%; also: 0% is about no effect
Target sequence (Q8NER1 whole entry, looked up): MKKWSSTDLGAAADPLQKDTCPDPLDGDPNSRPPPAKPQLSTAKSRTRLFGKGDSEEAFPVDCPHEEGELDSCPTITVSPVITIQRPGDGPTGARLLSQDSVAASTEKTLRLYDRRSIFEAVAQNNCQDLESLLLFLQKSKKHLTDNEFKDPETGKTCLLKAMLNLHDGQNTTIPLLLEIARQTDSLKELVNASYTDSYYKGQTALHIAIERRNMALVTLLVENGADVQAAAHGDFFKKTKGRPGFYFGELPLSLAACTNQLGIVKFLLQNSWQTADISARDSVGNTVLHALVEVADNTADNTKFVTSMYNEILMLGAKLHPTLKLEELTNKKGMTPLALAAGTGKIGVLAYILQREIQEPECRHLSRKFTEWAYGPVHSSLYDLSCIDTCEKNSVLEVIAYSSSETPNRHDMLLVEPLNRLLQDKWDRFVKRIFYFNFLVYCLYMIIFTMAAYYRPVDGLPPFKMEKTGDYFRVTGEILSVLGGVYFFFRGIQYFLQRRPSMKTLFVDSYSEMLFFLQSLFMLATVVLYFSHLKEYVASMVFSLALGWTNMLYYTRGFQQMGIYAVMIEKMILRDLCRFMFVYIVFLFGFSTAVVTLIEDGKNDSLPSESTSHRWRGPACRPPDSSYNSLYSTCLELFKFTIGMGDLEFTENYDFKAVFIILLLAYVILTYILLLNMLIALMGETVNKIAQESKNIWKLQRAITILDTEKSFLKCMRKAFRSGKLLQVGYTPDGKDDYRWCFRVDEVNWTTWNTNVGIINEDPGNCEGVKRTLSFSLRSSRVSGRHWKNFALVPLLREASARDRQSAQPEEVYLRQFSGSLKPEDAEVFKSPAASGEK
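Cells expressing TRPV1 were dye-loaded with Fluo-8 and read kinetically: 10 s baseline, 3 min after compound (agonist portion), then 2 min after EC20 capsaicin (allosteric enhancer portion). Calcium-bound dye fluorescence at 480/520 nm.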
Sfp PPTase inh: inhibitors of Bacillus subtilis Sfp phosphopantetheinyl transferase; Potency, µM, for the others: max response, negative = inhibition, usual class: inhibitors; hit rate 3.5% among 310,000; Q9F4F7; AID 1490; Biochemical Sfp PPTase activity, qHTS; active = well fitted inhibition curve with a large enough effect; inconclusive = small, poorly fitted or top-dose-only effect, or another doubt; inactive = no such curve, though single readings can be large or run the other way;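 also: the enzyme is Sfp with the accession as filed and its product quenches rhodamine fluorescence; potency is read from the fitted curve at half-maximal effect; 0% = enzyme reaction without inhibitor and -100% = no enzyme wells; top concentration of the series not given in the record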
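Compounds were incubated with enzyme (final 15 nM) for 15 min at room temperature before substrate addition started the reaction. Fluorescence at 525 nm excitation, 598 nm emission was recorded immediately and after 30 minutes.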
CtBP-E1A inh: CtBP/E1A binding inhibition. AlphaScreen GST-E1A/His-CtBP binding, 1536-well; hits give low values; control for the full effect not named in the record. activity change, % (concentration not given with the values). hit rate 0.49% among 340,000; in the data active means activity change below about -65%; inconclusive means about -30% to -65%; inactive means above about -30%; also: % is scaled to controls: 0 for no effect and ±100 for the full control effect
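AlphaScreen with 125 nM GST-E1A and 125 nM His-CtBP (5X stocks) in Tris pH 8.0, 300 mM NaCl, BSA, Tween 20, TCEP. Compounds preincubated 2 h at 37 deg C, then glutathione donor/nickel acceptor beads added for 1 h at 37 deg C in dark.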
gsp agonist: agonists of gsp mutant (McCune-Albright syndrome) | gsp mutant cells, cAMP HTRF, 30 min; control for the full effect not named in the record | hit rate 0.13% among 340,000 | Potency, µM (titrated, usually from 76.9 µM), for inactives: at the highest dose activation (cAMP increase), most hits filed as activators; active = well fitted activation curve with a large enough effect; inconclusive = small, poorly fitted or top-dose-only effect, or another doubt; inactive = no such curve, though single readings can be large or run the other way; cell line not stated here;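 also: phosphodiesterase inhibitor Ro 20-1724 added with compounds to block cAMP breakdown; potency is read from the fitted curve at half-maximal effect; nearly all actives have a fitted effect of over 60% in size; about a fifth of the inactives were tested at one dose only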
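Cells in DMEM/10% FBS with G418 were pretreated with compounds in DMSO plus […] (300 uM stock) for 30 min at 37C. cAMP was measured by HTRF (cAMP-d2 plus anti-cAMP antibody-K) after 30 min at room temperature.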
gsp antagonist: antagonists of gsp mutant (McCune-Albright syndrome). gsp-mutant cells, cAMP HTRF, 30 min; control for the full effect not named in the record. AID 624288. Potency, µM (top dose mostly 76.9 µM), inactives show at the highest dose activity change, negative = inhibition, actives largely listed as inhibitors. hit rate 0.4% among 340,000; active = falling curve of any shape with a large fitted effect; inconclusive = falling curve, mostly with a smaller effect; inactive = flat or rising curve; cell line not stated here;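 also: intracellular cAMP measured with PDE inhibitor Ro 20-1724 present during compound exposure; potency is read from the fitted curve at half-maximal effect; % is scaled to controls: 0 for no effect and ±100 for the full control effect; nearly all actives have a fitted effect of over 65% in size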
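HTRF cAMP read-out (cAMP-d2 plus anti-cAMP antibody-K in lysis buffer, 30 min RT). Before lysis, cells are exposed to compounds with […] for 30 min at 37C in DPBS containing Ca/Mg, BSA and Tween 20.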
An asterisk follows results filed as active; ? = inconclusive; / = no result given; & = joins results of further samples; [ ] = dose if it differs, or a comment.

The line under a structure holds: ClpP mod	Menin-MLL FL inh	TRPV1 PAM	Sfp PPTase inh	CtBP-E1A inh	gsp agonist	gsp antagonist
- CCOC(=O)C1CCCN(C(=O)c2ccc3c(c2)N(Cc2ccccc2)C(=O)c2ccccc2S3=O)C1 (stereo not given)
 : -1.4%	-4.3	-2	5%	3	-3%[15.4 µM]	8.9µM*
- Cc1cc(/C=C2/SC(=O)N(CC(=O)N3CCCC3)C2=O)ccc1N1CCOCC1
 : -2.5%	?	-3	4%	-22	0%[15.4 µM]	3%
- CCOC(=O)c1ccccc1NC(=O)C1CC(=O)N(C2CCCC2)C1 (stereo not given)
 : /	/	/	/	7	1%[15.4 µM]	2%
- O=C(CCc1ccccc1)n1nc(-c2ccco2)nc1SCc1ccccc1
 : 2.9%	-0.2	15	10%	1	?	2%
- CCOC(=O)c1[nH]c2ccc(OC)cc2c1NC(=O)CN1CCSCC1
 : 13µM*	1.9	7	15%	-4	6%	7%
- CC(NC(=O)c1cccc2ccccc12)c1ccc2c(c1)CCCC2 (stereo not given)
 : 1.2%	3.8	16	-3%	0	-13%	7%
- O=C(NCCCN1CCCC1)c1ccc2c(c1)N(Cc1cccc(Cl)c1)C(=O)c1ccccc1S2(=O)=O
 : -0.8%	/	/	/	0	-26%	/
- COc1ccc2c(c1)OCC1=C2CCC2(C)C(=O)CC=C12 (stereo not given)
 : /	?	3	20µM*	/	/	/
- Cc1ccc(C(=O)CSc2nnc(COc3ccccc3)o2)cc1
 : /	0.0	-13	6%	27	-21%[15.4 µM]	-13%
- Cc1nnc(NC(=O)C2CC(=O)N(c3ccccc3)C2)s1 (stereo not given)
 : /	-3.9	21	6%	1	-61%[inhibitor]	5%
- O=C(c1ccc(NS(=O)(=O)c2ccc(Cl)cc2)cc1)N1CCOCC1
 : /	0.8	5	1%	4	-1%[15.4 µM]	14%
- CCOC(=O)C1(CC2CCCCO2)CCN(S(=O)(=O)c2c(C)nn(C)c2C)CC1 (stereo not given)
 : /	-2.4	10	-5%	1	12%[15.4 µM]	/
- CSc1ccc(/C=C(/NC(=O)c2ccc(C)cc2)C(=O)Nc2cccc(C)c2)cc1
 : -19%	5.8	-6	8%	-6	-30%[inhibitor]	7%
- CC(C)n1c2ccccc2c2nnc(SCC(=O)Nc3ccccc3C(=O)O)nc21
 : /	-1.8	-21	9%	/	24%[15.4 µM]	12%
- CCOC(=O)C1(CC2CCCCO2)CCN(Cc2nccn2-c2cccc(C)c2)CC1 (stereo not given)
 : -0.9%	-0.3	-17	5%	/	-53%[inhibitor]	1%

Some of the entries so far, comma-delimited:
SMILES,ClpP mod,Menin-MLL FL inh,TRPV1 PAM,Sfp PPTase inh,CtBP-E1A inh,gsp agonist,gsp antagonist
COc1ccc2c(c1)OCC1=C2CCC2(C)C(=O)CC=C12 (stereo not given),/,?,3,20µM*,/,/,/
Cc1ccc(C(=O)CSc2nnc(COc3ccccc3)o2)cc1,/,0.0,-13,6%,27,-21%[15.4 µM],-13%

The main list resumes; the 4 compounds before the break are reprinted first.
The line under a structure holds: ClpP mod	Menin-MLL FL inh	TRPV1 PAM	Sfp PPTase inh	CtBP-E1A inh	gsp agonist	gsp antagonist
- CCOC(=O)C1(CC2CCCCO2)CCN(S(=O)(=O)c2c(C)nn(C)c2C)CC1 (stereo not given)
 : /	-2.4	10	-5%	1	12%[15.4 µM]	/
- CSc1ccc(/C=C(/NC(=O)c2ccc(C)cc2)C(=O)Nc2cccc(C)c2)cc1
 : -19%	5.8	-6	8%	-6	-30%[inhibitor]	7%
- CC(C)n1c2ccccc2c2nnc(SCC(=O)Nc3ccccc3C(=O)O)nc21
 : /	-1.8	-21	9%	/	24%[15.4 µM]	12%
- CCOC(=O)C1(CC2CCCCO2)CCN(Cc2nccn2-c2cccc(C)c2)CC1 (stereo not given)
 : -0.9%	-0.3	-17	5%	/	-53%[inhibitor]	1%
- O=C(c1ccc(F)cc1)N1CCCC(C(=O)N2CCN(c3ccccc3)CC2)C1 (stereo not given)
 : 28µM*	-1.5	12	4%	-13	-16%[15.4 µM]	1%
- O=S(=O)(Nc1ccc2c3c(cccc13)CC2)c1ccc(F)cc1
 : -1.2%	10	-7	-10%	-1	-3%	-15%
- O=S(=O)(NCc1ccc(Cl)cc1)c1cccc2cccnc12
 : -1.5%	4.0	-6	-5%	/	19%	6%
- N#CC1(NC(=O)CSc2n[nH]c(-c3ccccc3)n2)CCCCC1
 : 14µM*	/	-7	/	-2	10%[15.4 µM]	0%
- O=C(CSc1ccc(Cl)cc1)Nc1nnc(-c2cccc([N+](=O)[O-])c2)s1
 : 0.6%	-0.9	23	-21%	2	-41%[inhibitor]	-8%
- COc1ccccc1CNC(=O)COc1ccc(C)nc1[N+](=O)[O-]
 : -2.9%	-2.9	5	16%	0	?	-2%
- CCOc1ccccc1NC(=O)NS(=O)(=O)c1ccc(C)cc1
 : -3.2%	-1.3	-8	14%	5	-32%[inhibitor]	7%
- CN1CC=C2C(C#N)=C(N)C(C#N)(C#N)C(Cc3ccccc3)C2C1 (stereo not given)
 : ?	?	/	7%	-17	10%	-10%
- Cc1ccc2[nH]c(=O)c(COC(=O)c3cccs3)cc2c1
 : -16%	4.0	9	9%	-4	18%	-1%
- NC(=O)c1ccc(NC(=O)CCCNC(=O)c2ccc(Cl)cc2)cc1
 : 1.1%	-2.1	6	11%	4	23%	2%
- CC(CCc1ccccc1)NC(=O)c1cccc([N+](=O)[O-])c1 (stereo not given)
 : ?	1.4	-26	2%	1	2%	1%
- Cc1ccc(OCCSc2ncnc3sc(C)c(C)c23)cc1C
 : -0.6%	0.8	8	1%	-7	-34%[inhibitor]	1%
- CCN1CCN(C(=O)c2cccc(OC3CCN(S(=O)(=O)N(C)C)CC3)c2)CC1
 : 0.7%	/	-3	10%	6	4%	3%
- Cc1ccc(N=Nc2ccc(O)c(P(=O)(c3ccccc3)c3ccccc3)c2)cc1
 : 1.5%	-1.1	/	2%	24	-127%[inhibitor]	?
- CCOC(=O)C1=C(N)c2ccccc2CC1C(C)C (stereo not given)
 : -2.7%	-0.1	-9	14%	-10	-5%	-9%
- Cc1ccc(NC(=O)COC(=O)[C@H](C)N2C(=O)C3CC=CCC3C2=O)cc1S(=O)(=O)N(C)C (stereo not given in full)
 : 0.3%	-2.7	-4	18%	5	-9%[15.4 µM]	4%
- COc1ccc(NC(=O)Nc2cccc3c2O[C@H](CN(C)C(=O)Nc2ccc(OC)cc2)[C@@H](C)CN([C@H](C)CO)C3=O)cc1
 : 2.4%	/	/	/	7	/	-12%
- CCCSc1ccc([C@@H]2[C@H]3C(=O)N(C)C(=O)[C@H]3[C@]3(C(=O)OC)CCCN23)cc1OC
 : 1.1%	/	/	/	/	5%	-5%
- CNC(=O)c1nnn(Cc2ccccc2)c1NC(C)=O
 : 1.2%	-1.3	5	5%	6	7%	8%
- O=C(NCCCl)Nc1cc([N+](=O)[O-])ccc1Cl
 : /	-0.7	5	5%	4	-39%[inhibitor]	-3%
- NC(=O)c1ccccc1NC(=O)CSc1nc2c(c(=O)[nH]1)CCCC2
 : /	4.4	4	21%	-1	-1%[15.4 µM]	?
- COc1ccc(C(=O)CSc2ccc(-c3ccc(C)cc3)nn2)cc1
 : 1.0%	3.1	-9	3%	5	-10%	-16%
- Cn1c(=O)c2c(ncn2CCOc2ccc(F)cc2)n(C)c1=O
 : /	-4.1	-3	24%	-22	?	14%
- C/C(=N\NC(=O)c1ccccn1)c1ccc(Cl)cc1
 : /	0.0	-16	89µM*	-14	-8%[15.4 µM]	-7%
- Cc1noc(C)c1S(=O)(=O)NC1CCN(Cc2ccccc2)CC1
 : 2.2%	-11	/	23%	4	3%	9%
- O=C(CSc1ncnc2ccccc12)NCCCO
 : -1.2%	1.2	-5	-2%	0	?	7%
- Cc1ccc(-c2noc(-c3ccccc3C(=O)NCc3ccco3)n2)cc1
 : /	-0.2	2	5%	-14	25%	-27%
- O=C(O)c1ccc(-c2ccccc2)[nH]c1=O
 : 4.1%	1.9	-2	3%	-1	?	6%
- CCOc1ccc(NC(=S)N2CCCCCC2)cc1
 : -3.5%	7.5	4	-15%	-6	-3%[15.4 µM]	4%
- CC(C)[C@@H](C(=O)NCc1ccco1)N1C(=O)N2CCc3c([nH]c4ccccc34)[C@@]2(C)C1=O
 : 0.8%	4.1	-3	4%	-5	/	-7%
- O=S(=O)(NC1=NCCCCC1)c1ccc(Cl)cc1Cl
 : -4.8%	/	6	/	-4	?	5%
- C#CCN(C[C@H]1[C@H](OC(=O)NCC2CCCCC2)[C@H](OC(=O)NCC2CCCCC2)C[C@@H](C(=O)OC)[C@H]1C(=O)OC)S(=O)(=O)c1ccc(C)cc1
 : 1.8%	/	/	/	10	-1%	/
- CN1CCN(c2nc(Nc3ccc(O)cc3)nc3ccccc23)CC1
 : /	0.4	?	-17%	-30	-41%[inhibitor]	-17%
- O=S(=O)(NCc1ccccc1)[C@@H]1CC2C=CC1C2 (stereo not given in full)
 : -1.7%&1.5%	/	-9	/	0	/	-6%
- CC(C)(C)OC(=O)N[C@@H](C(=O)OC(C)(C)C)c1ccc(Br)cc1
 : 0.2%	/	-24	/	16	-8%	-4%
- COc1ccc(OC)c(/C=N/NC(=O)Cn2ccnc2C)c1
 : 3.7%	-1.5	0	-7%	5	-6%	5%
- OCCNc1nc2ccccc2nc1NCCO
 : /	-1.7	-2	15%	0	15%	0%
- O=C(Nc1nnc(CCN2CCCCC2)s1)c1ccccc1Cl
 : -1.5%	3.5	-21	6%	1	-10%	4%
- O=C(CN1CCN(C(c2ccccc2)c2ccccc2)CC1)N1CCOCC1
 : 0.9%	-1.1	-17	-11%	14	-23%	-4%

Screening data (PubChem)
